NS1 inh = qHTS Assay for Inhibitors of Influenza NS1 Protein Function; S. cerevisiae slowed by influenza A NS1, growth recovery by OD600; AID 2326, 2010; Potency, µM (series often up to 46.1 µM), for inactives: top-dose activity, positive = more growth; 0.4% of 270,000 active; active means well fitted rising curve with a large enough effect; inconclusive means small, poorly fitted or top-dose-only effect; inactive means no such curve, though single readings can be large or run the other way; further: nearly all actives have a fitted effect of over 50% in size
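Compounds were scored for reversing the slow growth caused by influenza A NS1 in S. cerevisiae, measured by optical density at 600 nm. Assay medium contained 2% galactose at pH 6.0; NS1-free yeast of the same strain were the positive control.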
Lassa entry inh = qHTS for Inhibitors of binding or entry into cells for Lassa Virus; Lassa virus pseudotype entry inhibition, cell reporter; control for the full effect not named in the record; Potency, µM (doses to about 37.9 µM), without a hit: at the top dose activity change, negative = inhibition, most hits filed as inhibitors; 1.2% of 300,000 active; AID 540256, 2011; active means well fitted inhibition curve with a large enough effect; inconclusive means small, poorly fitted or top-dose-only effect, or effect the other way; inactive means flat fitted curve, though single readings scatter; tested in HEK293 cells; further: on the % scale 0 is the no-effect control and ±100 the full control effect; nearly all actives have a fitted effect of over 50% in size; luciferase read-out
Cruzain inh noDet = qHTS Assay for Promiscuous and Specific Inhibitors of Cruzain (without detergent); Cruzipain (Trypanosoma cruzi), P25779; purified cruzain, Z-FR-AMC fluorescence, no detergent; Potency, µM, for the others: max response, negative = inhibition, most hits filed as inhibitors; 2.3% of 200,000 active; AID 1476, 2009;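 further: plate controls were enzyme without inhibitor for no effect and buffer without enzyme for full effect; nearly all actives have a fitted effect of over 40% in size; top concentration of the series not given in the record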
Target sequence (P25779 123-467 limits assumed): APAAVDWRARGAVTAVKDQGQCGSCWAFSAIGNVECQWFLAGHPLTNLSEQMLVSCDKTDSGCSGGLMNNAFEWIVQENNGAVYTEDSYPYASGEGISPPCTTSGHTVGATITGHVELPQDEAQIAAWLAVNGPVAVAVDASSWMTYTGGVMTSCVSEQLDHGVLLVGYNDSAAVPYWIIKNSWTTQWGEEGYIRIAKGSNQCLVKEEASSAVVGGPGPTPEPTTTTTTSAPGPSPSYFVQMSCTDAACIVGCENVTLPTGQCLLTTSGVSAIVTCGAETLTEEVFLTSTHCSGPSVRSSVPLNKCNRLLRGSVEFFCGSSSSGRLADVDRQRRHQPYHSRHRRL
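Purified cruzain at 1.5 nM, pre-incubated 15 min with compound at room temperature in 100 mM sodium acetate pH 5.5, 5 mM DTT, 0.00005% Triton X-100. Reaction started with 2 uM Z-FR-AMC; AMC fluorescence increase over 60 s gives rate.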
Cruzain inh Det = qHTS Assay for Promiscuous and Specific Inhibitors of Cruzain (with detergent); Cruzipain (Trypanosoma cruzi), P25779; purified cruzain, Z-FR-AMC fluorescence, 0.01% Triton; Potency, µM, without a hit: max response, negative = inhibition, most hits filed as inhibitors; 0.43% of 200,000 active;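 further: plate controls were neutral wells for no effect and buffer without enzyme for full effect; nearly all actives have a fitted effect of over 40% in size; top concentration of the series not given in the record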
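Cysteine protease activity tested under reducing, mildly acidic conditions (100 mM sodium acetate pH 5.5, 5 mM DTT) plus 0.01% Triton X-100. Cruzain 1.5 nM; substrate Z-FR-AMC 2 uM; 15 min compound preincubation at room temperature.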
MARV entry inh = qHTS for inhibitors of binding or entry into cells for Marburg Virus. Marburg virus pseudotyped entry inhibition, cell reporter; control for the full effect not named in the record; about a third of the inactives were read at about 46 µM. Potency, µM (series often up to 37.8 µM), for inactives: at the top dose activity change, negative = inhibition, actives largely listed as inhibitors. AID 540276, 2011. 1.8% of 300,000 active; active = well fitted inhibition curve with a large enough effect; inconclusive = small, poorly fitted or top-dose-only effect, or effect the other way; inactive = flat fitted curve, though single readings scatter; tested in HEK293 cells; about a fifth of its hits are not listed in these tables; further: on the % scale 0 is the no-effect control and ±100 the full control effect; luciferase read-out
SARS PLpro yeast = qHTS of Yeast-based Assay for SARS-CoV PLP; S. cerevisiae expressing SARS-CoV PLpro, growth rescue; control for the full effect not named in the record; Potency, µM (series often up to 32.9 µM), inactives show at the highest dose activity, positive = growth rescue; 0.19% of 330,000 active; AID 485353, 2010; active means well fitted rising curve with a large enough effect; inconclusive means small, poorly fitted or top-dose-only effect; inactive means no such curve, though single readings can be large or run the other way; further: 0% is about no effect; nearly all actives have a fitted effect of over 55% in size; growth read by luminescence after 48 h
StopGo reporter = High Throughput Screening for Foot and Mouth Disease Virus Antivirals. human cells with a luciferase reporter of 2A StopGo recoding; control for the full effect not named in the record. Potency, µM (doses to about 57.9 µM), for the others: at the top dose signal change, negative = less light. 1.2% of 410,000 active. AID 1159524, 2015; active = well fitted falling curve with a large enough effect; inconclusive = small, poorly fitted or top-dose-only effect; inactive = no such curve, though single readings can be large or run the other way; tested in HEK293T cells; further: on the % scale 0 is the no-effect control and ±100 the full control effect; nearly all actives have a fitted effect of over 45% in size; luciferase light after 4 h
RE007 growth inh = qHTS Assay for Inhibitors of the HIV-1 protein Vpr. S. pombe RE007 Vpr strain, BacTiter-Glo ATP luminescence, 24 h; control for the full effect not named in the record. Potency, µM (highest dose often 92.2 µM), inactives show at the top dose activity change, negative = less growth. 0.21% of 360,000 active; active = well fitted falling curve with a large enough effect; inconclusive = small, poorly fitted or top-dose-only effect; inactive = no such curve, though single readings can be large or run the other way;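 further: on the % scale 0 is the no-effect control and ±100 the full control effect; nearly all actives have a fitted effect of over 50% in size; the assay follows cell death caused by Vpr and the record does not say whether a fall means rescue or toxicity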
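Fission yeast strain RE007, carrying one chromosomally integrated HIV-1 vpr copy, was seeded at OD 0.01 in PMG+AL medium with 23 nL pinned compound. After 24 h at 30 °C and 99% humidity, viability was read by BacTiter-Glo luminescence.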
* marks the source's active call; other numbers are inactive results; ? = inconclusive; / = not tested or not shown; & = joins results of further samples; [ ] = dose if it differs, or a comment. Unless noted, the call rests on the fitted dose curve; in most records, active means well fitted curve in the direction sought with a large enough effect; inconclusive means small, poorly fitted or top-dose-only effect, or another doubt; inactive means no such curve, though single readings can be large; an effect the other way counts as inactive or inconclusive. Potency means the concentration at half of the fitted maximal effect.

SMILES	NS1 inh	Lassa entry inh	Cruzain inh noDet	Cruzain inh Det	MARV entry inh	SARS PLpro yeast	StopGo reporter	RE007 growth inh
CCOc1ccc(CN(C)CC(=O)Nc2ccc(N3CCOCC3)cc2)cc1OC	-1%	-14%	4%	2.5%	7%	11%	-10%	-5%
CC(C)(C)OC(=O)[C@H](Cc1ccccc1)NC(=O)c1[nH]cnc1C(=O)Nc1cccc(Cl)c1	?	/	/	/	/	3%	-17%	1%
Cc1ccc2nc(-c3ccc(NC(=O)COC(=O)c4ccc(=O)[nH]c4)cc3)sc2c1	69%	?	25%	-2.5%	?	1%	-35%	-15%
CCn1c(C(=O)N2CCCC(C(=O)NCCCc3ccccc3)C2)cc2sccc21 (stereo not given)	-6%	-18%	?	0.7%	?	22%	/	-6%
COc1ccc(NC(=O)c2coc3ccccc23)cc1OC	-45%	?	7%	-4.7%	?	3%	37%[activator]	4%
CCn1cc(C(=O)N2CCN(c3cc(Cl)ccc3C)CC2)c(=O)c2cc(S(=O)(=O)N3CCOCC3)ccc21	/	-4%[46.1 µM]	?	-10%	-26%[46.1 µM]	/	-26%	/
CCN(CC)C(=O)CN(C#N)c1nc(Cl)nc(N(C)C)n1	3%	/	/	/	/	0%	-19%	19%
CCOc1ccccc1CN1CCN(Cc2ccc(C)o2)C(CCO)C1 (stereo not given)	-1%	/	/	/	/	1%	7%	-9%
Cc1ccc(NC(=S)NC(=O)c2ccc(Br)o2)c(C)c1	4%	28%[46.1 µM]	/	/	2%[46.1 µM]	0%	44%[activator]	-6%
CC(C)CCN1CCN(Cc2coc3ccccc3c2=O)CC1CCO (stereo not given)	9%	10%[46.1 µM]	/	/	21%[46.1 µM]	-1%	9%	-23%
CCN(CC)C(=O)C(=O)N/N=C/c1ccc(F)cc1	0%	2%	/	/	8%[46.1 µM]	0%	10%	-14%
COC(=O)C1=C(N)Oc2cc(C)[nH]c(=O)c2C1c1ccc(Cl)cc1 (stereo not given)	-9%	/	/	/	/	-1%	-13%	-2%
NS(=O)(=O)c1ccc(CCNC(=O)c2ccncc2)cc1	16%	8%[46.1 µM]	/	/	?	-3%	85%[activator]	-2%
COc1cc(CN2CCNC(=O)C2CC(=O)NC2CCCCC2)cc(OC)c1 (stereo not given)	8%	4%	/	/	2%	7%	-9%	0%
COc1ccc(NS(=O)(=O)c2c(C)cc(C)cc2C)cn1	-28%	-8%[46.1 µM]	/	/	-14%[46.1 µM]	2%	23%	-2%
COc1ccc(N2CCN(C(=O)c3ccccc3NS(=O)(=O)c3ccc(C)cc3)CC2)cc1	-2%	?	/	/	?	0%	37%[activator]	-10%
Cc1cccc(NC(=O)C(=O)NCCc2csc(-c3ccc(C(F)(F)F)cc3)n2)c1C	/	?	-3%	-0.3%	/	/	12%	/
CC(C)(C)NC(=O)c1cccc(NC(=O)Cc2cccs2)c1	-3%	?	/	/	-1%[46.1 µM]	0%	34%[activator]	11%
Cc1ccc(C(O)(C(=O)NNS(=O)(=O)c2ccc(C)cc2)c2ccc(C)cc2)cc1	-16%	-8%	1%	-3.7%	-20%	-16%	20%	-7%
Cc1ccc(-c2cc(-c3ccco3)c3c(N)c(C(=O)NN)oc3n2)cc1	?	/	/	/	/	-2%	7%	11%
COc1ccc(C2SCC(=O)Nc3c2c(C)nn3-c2ccccc2)cc1OC (stereo not given)	17%	2%	7%	0.1%	1%	-3%	-23%	3%[3.69 µM]
Cc1ccccc1N1CC(C(=O)Nc2ccc3c(c2)OCO3)CC1=O (stereo not given)	2%	6%	/	/	14%[46.1 µM]	0%	23%	0%
Cc1ccc(C)c(S(=O)(=O)N/N=C/c2cccnc2)c1	-7%	?	15%	-0.5%	11%	-9%	142%[activator]	-10%
O=C(Nc1ccc(F)cc1)Nc1ccc(Cl)cn1	-12%	24%[14.3 µM]	-18%	2.2%	?	-5%	61%[activator]	-19%
CCc1ccc(CNC(=O)CCCN2C(=O)CCn3nc(-c4cccn4C)cc32)cc1	/	22%[46.1 µM]	?	-3.7%	/	/	-13%	/
Remaining list, next part.
SMILES	NS1 inh	Lassa entry inh	Cruzain inh noDet	Cruzain inh Det	MARV entry inh	SARS PLpro yeast	StopGo reporter	RE007 growth inh
CCn1cc(C(=O)NCCOC)c(=O)c2ccc(C)nc21	-6%	1%	-22%	-2.4%	1%	-2%	-5%	5%
COc1cccc(OC)c1C(=O)NC(=S)Nc1ccc2c(c1)C(=O)N(C)C2=O	5%	5%	-2%	-2.7%	?	15%	-3%	16%
C=CCc1cc(OC)ccc1OCCN1CC(C)OC(C)C1 (stereo not given)	-5%	/	/	/	/	-3%	-14%	-14%
COc1cccc(-c2c(-c3cc(OC)cc(OC)c3)n(C)c3ccc(-c4ccc5[nH]ccc5c4)cc23)c1	/	/	/	/	-6%	-3%	19%	7%
COc1cccc(C2CC(=O)N3CN(c4cccc(Cl)c4C)CSC3=C2C#N)c1OC (stereo not given)	-34%	/	?	-3.2%	/	2%	-5%	-4%
O=C(Cn1c(-c2cscn2)nc2ccccc21)Nc1ccc2ccccc2c1	7%	12%	-3%	-1.1%	9%	-19%	11%	1%
Nc1nnnn1/N=C/c1cc(Cl)cc(Cl)c1O	-19%	11%[46.1 µM]	/	/	-9%[46.1 µM]	5%	-28%	-4%
COc1ccccc1OCC(=O)N1CCN(Cc2ccc3c(c2)OCO3)CC1	1%	17%	/	/	1%	0%	-28%	6%
Cc1cc(C(=O)NC2CCC(O)CC2)c(C)o1 (stereo not given)	/	7%	/	/	7%	-3%	3%	-1%
COc1ccccc1NC(=O)c1ccc(NS(=O)(=O)c2ccc(F)c(F)c2F)cc1	26%	11%	-18%	-1.1%	34%	-13%	?	3%
CCOC(=O)C1=NNC(C(=O)OCC)C1C(=O)OCC (stereo not given)	/	7%[46.1 µM]	/	/	4%[46.1 µM]	/	4%	8%
Cc1noc2ncnc(Sc3ccccc3Cl)c12	-88%	?	-13%	-2.5%	-21%[46.1 µM]	5%	40µM*	?
O=C(Cn1cc(C(F)(F)F)ccc1=O)Nc1ccc2c(c1)OCCO2	/	?	/	/	?	-2%	-16%	2%
C=CCC1NS(=O)(=O)OC2CCCCC12 (stereo not given)	16%	/	/	/	/	-15%	1%	-13%
Cc1oc2c(CN3CCOCC3)c(O)ccc2c(=O)c1-c1ccccc1	-3%	2%	7%	5.7%	2%	-2%	/	5%
Cc1ccc(CCNC(=O)c2cc3sccc3n2Cc2ccc(F)cc2)cc1	/	-21%[46.1 µM]	-4%	-7.0%	10%[46.1 µM]	/	-4%	/
CC1(C)CC(=O)c2sc(NC(=O)C3COc4ccccc4O3)nc2C1 (stereo not given)	-7%	/	-3%	-6.6%	/	-14%	30%	-12%
Cc1cc(C)cc(NC(=O)C2CCCN(c3nc(C)cc(C)n3)C2)c1 (stereo not given)	-11%	36%[14.3 µM]	-24%	-1.8%	-6%	1%	-21%	-3%
CCCn1c(N2CCN(Cc3cccc(C)c3)CC2)nc2c1c(=O)[nH]c(=O)n2C	4%	/	3%	-0.6%	/	-1%	?	-7%
CC1=C(C(=O)Nc2cccnc2)C(c2ccncc2)n2nnnc2N1 (stereo not given)	13%	-2%	-3%	3.1%	23%&23%	-3%	1%	-7%
CN1c2ccsc2C(O)=C(C(=O)Nc2ccccc2)S1(=O)=O	22%	18%	4%	-1.8%	6%	11%	1%	-9%
COc1cccc(-c2cnc(NCc3cc(Cl)ccc3O)n2C)c1	-63%	-4%	0%	-12%	?	-1%	?	1%
CCN1CC(O)=C(c2nc3ccccc3s2)C1=N	-12%	20%	3%	-3.3%	?	-10%	36%[activator]	-19%
CCCn1c(SCC(=O)c2c(C)[nH]c(C)c2C(=O)OCC)nc2ccccc21	-3%	-10%	5%	-12%	?	-6%	21%	14%
Cc1nn(Cc2ccc(Cl)cc2Cl)c(C)c1NC(=O)c1ccc(COc2cc(Cl)ccc2Cl)o1	19%	-17%	?	-9.4%	?	-3%	?	-16%
(more compounds)
SMILES	NS1 inh	Lassa entry inh	Cruzain inh noDet	Cruzain inh Det	MARV entry inh	SARS PLpro yeast	StopGo reporter	RE007 growth inh
COc1ccc(CNC(=S)NC2CCCC2)cc1	0%	12%	-5%	-2.2%	19%	?	28%	7%
COC(=O)CSc1nn(-c2ccc(F)cc2)c(=S)s1	/	/	/	/	13%[46.1 µM]	-8%	4%	-7%
O=C(Nc1ccccc1Oc1ccsc1C(=O)O)c1ccccc1F	2%	/	/	/	/	0%	1%	35%
COc1ccccc1NC(=O)N(Cc1ccco1)Cc1cc2cc(C)cc(C)c2[nH]c1=O	-47%	?	0%	-7.7%	?	-2%	?	2%
Cc1cc(C)c(NS(=O)(=O)c2ccccc2)c(C)c1	/	-9%[46.1 µM]	/	/	-2%[46.1 µM]	/	-10%	7%
Cc1nc2ccc(S(=O)(=O)NCC(=O)N(C)Cc3ccco3)cc2s1	-1%	-7%	-5%	-5.4%	-3%	0%	73%[activator]	6%
N#CCc1ccc(Oc2ncc(C(F)(F)F)cc2Cl)cc1	/	2%[46.1 µM]	/	/	8%[46.1 µM]	-1%	-2%	42%
Cc1cccc(Nc2ncnc3ccccc23)c1	-19%	-2%	-15%	0.3%	-10%&-10%	-8%	22%	-22%
CCC(=O)Nc1ccc(S(=O)(=O)Nc2cccnc2)cc1	8%	12%	0%	1.4%	8%	-3%	/	13%
Cc1ccc(S(=O)(=O)N(CCO)Cc2ccccc2)cc1	-6%	-2%	/	/	3%	5%	27%	7%
CCCc1cc(=O)oc2c(CN3CCN(C)CC3)c(O)c(Cl)cc12	4%	-3%	?	32µM*	30%	6%	-5%	-1%
O=[N+]([O-])C(=C1NCCN1)C(Cl)=C(Cl)Cl	7%	/	/	/	/	1%	12%	12%

Screening results deposited in PubChem BioAssay by National Center for Advancing Translational Sciences (NCATS).
